From PubChem BioAssay
Ba CapD inh – CapD enzyme inhibition; purified CapD enzyme, fluorescence intensity read-out; active compounds read low; some hits fall short of the stated cut; z-score (test concentration not listed); 0.23% of 140,000 active; AID 492967;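 active = z-score under -4 in either of two replicates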;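 also: stock transfer was 100 nL into about 40 µL; score is relative to mean and spread of the plate; one replicate is shown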
AID504770 – growth inhibitors of E. coli YBA685 in a screen for V. cholerae RctB (chromosome II replication) inhibitors. E. coli YBA685 rctB-dependent plasmid, OD600 growth, 3 h; active compounds read low. z-score (test concentration not listed). 0.27% of 130,000 active. AID 504770;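 active = z-score under -2 on both plates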;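 also: wells of about 30 µL received 100 nL stock; score is relative to mean and SD of the test wells; the first replicate is given; strong numbers were not always called active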
* hit, by the source's call; · = not tested or not shown. Rows are unselected. About 0.41% of those tested had a hit in this group.

SMILES | Ba CapD inh | AID504770
Cn1nc(CC(=O)Nc2ccc(-c3nnc4n3CCCCC4)cc2)c2ccccc2c1=O | · | -0.65
Cn1c(CNC(=O)C2CCCCC2)cc2cc(Cl)ccc21 | · | -0.35
O=C(O)C1CCN(c2ncnc3ccccc23)CC1 | · | -0.7
CCOP(=O)(CC)CC(=O)O (centres undefined) | -0.03 | -0.1
COC(CNC(=O)C1CCC(CNS(=O)(=O)c2ccccc2)CC1)OC (centres undefined) | -0.245 | -0.2
COc1cc(C(=O)N(CCC#N)C2CC(C)CC(C)(C)C2)cc(OC)c1OC (centres undefined) | -0.305 | -0.65
Cc1ccc(NC(=O)Cc2nc(-c3cccc(C(F)(F)F)c3)no2)c(C)c1 | -0.19 | ·
COc1cccc(N(Cc2ccc(C)cc2)C2=NC3CS(=O)(=O)CC3S2)c1 (centres undefined) | -1.19 | 1.45
CCOc1ccc(NC(=O)CC2(CC(=O)O)CCCC2)cc1 | · | 0
Cc1ccc2c(c1)sc1nc(-c3ccccc3Cl)cn12 | -0.055 | -1.05
CC(Sc1ncccn1)C(=O)N/N=C/c1ccccc1Cl (centres undefined) | -0.08 | -0.75
CCC1CCCCN1S(=O)(=O)c1ccc2cc(OC)ccc2c1 (centres undefined) | -0.2 | -0.25
CCn1nc(C)c(/C=N/NC(=O)c2cc(C3CC3)nc3ccccc23)c1C | -0.22 | 0.15
CC(C)Nc1nc(-c2c(F)cccc2Cl)cs1 | -0.555 | -1.1
Cc1nn2c(nc1=O)SCC(c1ccccc1)=N2 | -0.355 | 1.2
COc1cccc(OC)c1/C=N/NC(=O)C(CCSC)NC(=O)c1ccc(C(F)(F)F)cc1 (centres undefined) | -0.43 | ·
COc1ccc(CNC(=O)CCCn2c(=O)oc3ccccc32)cc1 | · | 0.85
Cc1ccc(N/N=C2/CCc3ccccc3C2=O)cc1 | -1.04 | -0.1
CS(=O)(=O)CCOC(=O)c1cccc(Br)c1 | · | 0.85
COc1ccc2cc3cc(C(=O)NCCCN4CCC(C)CC4)oc3nc2c1 | 75.5 | -0.35
O=C1c2ccccc2NC2(C(=O)Nc3ccc(Br)cc32)N1c1ccccc1 (centres undefined) | 0.03 | ·
CCCCC(CC)C(=O)Nc1ccc(S(=O)(=O)N2CCCCC2)cc1 (centres undefined) | -0.34 | 0.65
CCc1nc2ccccc2c2c1C(=O)N(NC(=O)Cc1ccccc1)C2=O | 0 | ·
CC1(C)C(=O)OC(c2ccco2)C(C)(C)C1=O (centres undefined) | 0.165 | -1.05
O=C(OCn1nnc2ccccc2c1=O)c1ccccc1 | · | -1.7

Continuation.
SMILES | Ba CapD inh | AID504770
O=C(NCc1ccc2[nH]c3c(c2c1)CCCC3)Nc1ccccc1 | 0.01 | 0.7
COc1ccc(C2OCC(CN3CCCCC3)O2)cc1 (centres undefined) | -0.215 | -0.2
c1ccc(C2COC(c3cccs3)=N2)cc1 (centres undefined) | · | 1.4
Cc1cc(C)c2c(c1)-c1c(ssc1=S)C(C)(C)N2C(=O)C1CC1 | -0.765 | ·
Cc1cc(C)c(C)c(S(=O)(=O)N2CC(C)OC(C)C2)c1C (centres undefined) | -0.04 | -0.95
N#Cc1cc(-c2cccc(C(F)(F)F)c2)cnc1Sc1ccccc1 | -0.385 | ·
C=C(C)c1cccc(C(C)(C)NC(=O)NCCc2ccc(F)cc2)c1 | -0.16 | -0.45
COc1cccc(C(=O)NC(Cc2ccccc2)c2nc3ccc(C)cc3[nH]2)c1 (centres undefined) | -0.49 | ·
COc1cccc(C2(O)CCN(C(=O)c3cccs3)CC2)c1 | · | -0.85
O=c1c(Cl)c[nH]n(-c2ccccc2)c1=O | 0.01 | -0.8
COC(=O)c1cc(C#N)c(NCc2cc(-c3ccc(OC)cc3)no2)nc1C | 0.395 | ·
CCN(CC)C(=S)Nc1ccc2oc(N(C)C)nc2c1 | 0.375 | -0.5
CC(=O)Nc1ccc(OCc2cn3cc(C)ccc3n2)cc1 | · | -0.4
CC(Sc1nnc(-c2ccco2)o1)C(=O)NC1CCCC1 (centres undefined) | · | 0.4
O=C(OCc1ccc(F)cc1F)N1CCC(O)(c2cccc(C(F)(F)F)c2)CC1 | -0.61 | ·
Cc1ccc(S(=O)(=O)N(C)C2CCN(Cc3ccc(C(F)(F)F)cc3)C2)cc1Cl (centres undefined) | 1.5 | ·
COC(=O)c1c(C)n(S(C)(=O)=O)c2ccc(N(C(C)=O)S(C)(=O)=O)cc12 | · | -0.55
CCC1(C)Cc2c(sc3nc(SCC(=O)OC)n(Cc4ccccc4)c(=O)c23)CO1 (centres undefined) | 0.98 | ·
Cc1cccc(C(=O)NCC(=O)N(C)Cc2nc3ccccc3c(=O)[nH]2)c1 | · | -1.95
O=C(NNC(=S)NC1CC2C=CC1C2)c1ccco1 (centres undefined) | -0.185 | ·
OC(c1ccccc1)c1ccc2ccccc2c1 (centres undefined) | 0.055 | 1
CCCCOc1ccc(-c2nnc(-c3ccco3)n2-c2ccccc2)cc1 | · | 1.05
CN(Cc1ccccc1)C(c1ccc(F)cc1)c1c(O)[nH]c(=O)[nH]c1=O (centres undefined) | -0.595 | -0.1
O=C(c1ccccc1)c1cc(Cl)ccc1N=Cc1ccsc1 | -1.49 | 0
O=c1cc(CSc2ccccc2)c2ccc(O)cc2o1 | 1.58 | -0.45

(continued)
SMILES | Ba CapD inh | AID504770
CN(C)c1ccc(/C=C2/C(=O)NC(=O)N(c3ccccc3)C2=O)cc1Br | -0.735 | ·
COC(=O)c1ccc(OCC(O)CN2C(C)CCCC2C)cc1 (centres undefined) | -0.16 | -0.25
Clc1cc(Cl)c(Cl)c(-n2cccc2)c1Cl | 0.17 | ·
O=C(COc1ccc(Oc2ccccc2)cc1)NCCCn1ccnc1 | -0.585 | -0.35
COc1ccccc1N1CCN(c2ncnc3c2cnn3-c2ccc(C)cc2C)CC1 | -0.065 | ·
CCOC(=O)c1ccc(-c2coc3cc(O)cc(O)c3c2=O)o1 | 0.155 | -0.2
FC(F)(F)c1cc(-c2nnc(N3CCCC3)o2)cc(C(F)(F)F)c1 | 41.9 | -0.55
O=C(c1cc(-c2ccco2)on1)N1CCCCC1 | 0.27 | -0.1
O=C(CN1C(=O)C2C3C=CC(C3)C2C1=O)NCc1ccccc1 (centres undefined) | -1.06 | 1.7
Cc1ccc(/C=C/C(=O)O)c(Br)c1 | · | -0.5
CN(Cc1n[nH]c(=S)n1C)S(=O)(=O)c1ccccc1 | -0.085 | -0.75
CN(c1ccc(Cl)cc1)S(=O)(=O)c1ccc2[nH]cc(C(=O)N3CCc4ccccc4C3)c(=O)c2c1 | 2.91 | ·
COc1ccc(-n2c(SCC(=O)/C(C#N)=C(\C)N)nc3ccccc3c2=O)cc1OC | · | -0.3
CCOCCOC(=O)C1=C(C)NC2=C(C(=O)CC(c3ccccc3)C2)C1c1cc2c(cc1Cl)OCO2 (centres undefined) | 32.2 | ·
CCc1ccc(NC(=O)Cn2c(=O)n(CCC(=O)NCc3ccco3)c(=O)c3ccccc32)cc1 | 0.24 | -0.4
C=CCSc1nc2sc3c(c2c(=O)n1-c1ccc(OC)cc1)CC(C)(C)OC3 | -1.92 | ·
COC(=O)C1=C(C)Nc2[nH]c(=S)[nH]c(=O)c2C1c1ccccc1F (centres undefined) | 0.105 | ·
CCCCn1cnc2cc(NCc3cccc(OC)c3OC)ccc21 | 67.1 | -0.55
Cc1ccc(C2C=C(c3ccc(C(C)C)cc3)Nc3ncnn32)cc1 (centres undefined) | 73.5 | -0.6
Cn1ncc2c(O/N=C(\N)c3ccc(C(F)(F)F)cc3)ncnc21 | 0.595 | -0.95
CCOC(=O)c1c(NC(=S)NC2CCCCC2)sc2c1CC(C)(C)OC2 | -0.2 | ·
CN1Cc2cc(CN3C(=O)c4ccccc4C3=O)ccc2NC1=O | -0.28 | 1.85
Cc1ccc(NC(=O)c2nccnc2C(=O)O)cc1 | -0.41 | -0.85
CCN1CCN(c2nc(C)nc3c2sc(=S)n3C)CC1 | -1.01 | 0.55
CCC1(C)CC(CCNCc2ccccc2)(c2ccc(OC)cc2)CCO1 (centres undefined) | -0.345 | ·

Structures listed so far that have a furan ring, fused or not, in the order listed:
SMILES | Ba CapD inh | AID504770
COc1ccc2cc3cc(C(=O)NCCCN4CCC(C)CC4)oc3nc2c1 | 75.5 | -0.35
CC1(C)C(=O)OC(c2ccco2)C(C)(C)C1=O (centres undefined) | 0.165 | -1.05
CC(Sc1nnc(-c2ccco2)o1)C(=O)NC1CCCC1 (centres undefined) | · | 0.4
O=C(NNC(=S)NC1CC2C=CC1C2)c1ccco1 (centres undefined) | -0.185 | ·
CCCCOc1ccc(-c2nnc(-c3ccco3)n2-c2ccccc2)cc1 | · | 1.05
CCOC(=O)c1ccc(-c2coc3cc(O)cc(O)c3c2=O)o1 | 0.155 | -0.2
O=C(c1cc(-c2ccco2)on1)N1CCCCC1 | 0.27 | -0.1
CCc1ccc(NC(=O)Cn2c(=O)n(CCC(=O)NCc3ccco3)c(=O)c3ccccc32)cc1 | 0.24 | -0.4

(further entries)
SMILES | Ba CapD inh | AID504770
O=C(NCCCN1CCCC1)c1noc2c1CCCCC2 | -0.29 | 0.25
CSc1nnc(SC(C)C(=O)Nc2c(C)cccc2C(C)C)n1N (centres undefined) | · | 0.2
Cc1ccccc1NC1=NC(C)(C)CS1 | 0.535 | -1.05
COc1ccc(C(=O)n2cnnc2N)cc1 | · | 0.6
CCOC(=O)C1=CN(C)C=C(C(=O)OCC)C1c1ccc(C)c(Br)c1 | 61.8 | -0.05
C=CCn1c(SCC(=O)c2ccc(Br)cc2)nc2cc(C(=O)N3CCC(C(N)=O)CC3)ccc2c1=O | -0.69 | ·
COc1ccc(-c2nc3ncccc3n2OCc2ccc(Cl)cc2Cl)cc1 | 24.4 | ·
N#C/C(=C1/CCCN1)c1nc2ccccc2s1 | · | -1.3
CCOC(=O)c1c(NC(=O)COc2ccc(Cl)cc2Cl)sc(C(=O)N2CCCCC2)c1C | 0.08 | ·
CCS(=O)(=O)c1ccc(-c2csc(-c3ccccn3)n2)c(Cl)c1Cl | 0.21 | ·
CC1CC(N(C(=O)c2ccc([N+](=O)[O-])cc2)c2ccccc2)c2ccccc2N1C(=O)c1ccc(F)cc1 (centres undefined) | -0.605 | ·
COc1cccc(CN2COc3ccc4c(oc(=O)c5ccccc54)c3C2)c1 | 1.48 | -0.1
CSc1cccc(NC(=O)CN(C)S(=O)(=O)c2ccccc2)c1 | -0.12 | -1.05
Cc1ccc(-n2c(C)ccc2C)cc1 | -0.125 | -0.35
Nc1nnc(SCC(=O)NC2CCCCC2)s1 | · | 0.45
Cc1ccc(C23CC4CC(CC(C(=O)Nc5cc(Cl)ccc5Cl)(C4)C2)C3)cc1 | 0.645 | ·
CCCN(CCC)C(=O)c1cccc2c1-c1ccccc1C2=O | -0.515 | -0.5
Cc1ccc(NC(=O)c2cccc3c2C(=O)N(Cc2cccnc2)C3)cc1F | -0.43 | 2.4
CCOC(=O)C1=C(C)NC2=C(C(=O)C(C(=O)OCC)C(c3ccc(OC)cc3)C2)C1c1ccc(OCC)cc1 (centres undefined) | 2.06 | ·
O=C(CN1CCN(C(=O)c2cccnc2Sc2ccc(Cl)cc2)CC1)N1CCCC1 | · | -0.4
CCn1c(=O)cc(OCC(=O)O)c2ccccc21 | 1.18 | 0.1
Cn1c(=O)n(C2CCCCC2)c(=O)c2ccccc21 | 2.46 | 2.15
C=CCNC(=O)c1ccc(COc2ccccc2Cl)o1 | · | -0.7
O=C(CSc1nnc2[nH]c(=O)ccn12)NCc1ccc(F)cc1 | · | -1.45
Cc1cc2c(ncn2C(C)C)c(NS(=O)(=O)c2ccc(Cl)cc2)c1C | -0.01 | ·

Continued:
SMILES | Ba CapD inh | AID504770
OCc1ccccc1CNc1cccc2ccccc12 | 41.6 | -0.35
COc1cccc(-c2nc3ccccc3c(=O)n2NC(=O)Cn2nc([N+](=O)[O-])c(Cl)c2C)c1 | -0.445 | ·
Fc1ccc(CSc2nc(N3CCOCC3)nc(N3CCOCC3)n2)cc1 | · | 0
O=C(Nc1cccc(-c2nc3ccccc3[nH]2)c1)c1ccccc1 | -0.195 | -0.8
Cc1cc(-c2ccc(C(C)C)c(S(=O)(=O)NCCN3CCC(C)CC3)c2)on1 | -0.595 | 0.55
CCn1c(=N)n(CCOc2ccc(C)cc2)c2ccccc21 | -0.57 | -0.75
CCCc1nn2c(=O)cc(COc3ccc(NC(=O)C(C)C)cc3)nc2s1 | 0.145 | -0.85
O[N+]1=CC=CCC1=S.On1ccccc1=S.[Zn] | 0.79 | -4*
Cc1ccc(C(=O)N/N=C/c2ccnc3ccccc23)s1 | 4.6 | ·
O=C(NCc1ccc(Cl)cc1)c1ccc(CS(=O)c2cccc(Cl)c2)o1 (centres undefined) | 0.5 | 0.6
Cc1nn(CC(=O)NCc2cccnc2)c(=O)c2ccccc12 | · | 1.75
O=C(O)CCC(=O)N1N=C(c2cccs2)CC1c1cn(-c2ccccc2)nc1-c1ccccc1 (centres undefined) | 40.9 | ·
COC(=O)c1ccccc1NC(=O)c1cccs1 | -0.875 | -1.15
O=C(Nc1nc2ccccc2n1Cc1ccccc1)C1CCCCC1 | 0.125 | ·
O=C(Cn1nnc2ccccc2c1=O)c1ccccc1 | · | -0.2
O=[N+]([O-])c1ccc(-c2ccc(-c3[nH]c(-c4cccc([N+](=O)[O-])c4)nc3-c3ccccc3)cc2)cc1 | 0.025 | ·
O=S1(=O)CCC(NC(=S)SCCOc2ccccc2OCCO)C1 (centres undefined) | · | -2.95*
CC(=O)N1c2ccc(C)cc2-c2ccccc2S1(=O)=O | 8.75 | ·

Some of the entries above in a different format.
structure	Ba CapD inh	AID504770
COc1cccc(OC)c1/C=N/NC(=O)C(CCSC)NC(=O)c1ccc(C(F)(F)F)cc1 (centres undefined)	-0.43	·
COc1ccc(CNC(=O)CCCn2c(=O)oc3ccccc32)cc1	·	0.85
Cc1ccc(N/N=C2/CCc3ccccc3C2=O)cc1	-1.04	-0.1
CS(=O)(=O)CCOC(=O)c1cccc(Br)c1	·	0.85
